# High-throughput results: PubChem BioAssay, several laboratories
# A1 inh – caspase 3/7 activation in MEF A1-2A-BIM cells, primary screen, A1 inhibitor project, cell-based, luminescence, HTS | Caspase-Glo 3/7 luminescence, 3 h; percent of clofoctol response, vehicle zero | caspase activation, % (concentration not given with the values) | 330,000 compounds, 0.066% hits | AID 2462, 2010;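 active = over half of replicate activation scores above 10%, or exactly half above 10 with the replicate mean above 10; inconclusive = replicate mean below 10 yet half the replicates above 10; inactive = over half of replicates below 10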;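 note: wells of about 30 µL received 50 nL stock; many hits fall short of the cut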
# rRNA inh HTS – reduced GFP signal of wild-type E. coli, primary screen, bacterial rRNA inhibitor project, GFP/RFP fluorescence, OD600, single point. 350,000 compounds, 1.6% hits. E. coli WT GFP vs humanized-ribosome RFP mutants, 24 h; active compounds read low; DMSO median 0, no signal -100. GFP signal change (wild-type ribosome), % (concentration not given with the values);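 active = significant combined selectivity score with lowered wild-type GFP, culture density cut under 30%, mutant RFP and density less affected; inactive = any of these conditions unmet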; note: one replicate is shown; some compounds called inactive have numbers as strong as hits
# B2AR ag – beta2AR agonists driving receptor internalization, primary screen, cell-based, FAP fluorogen, flow cytometry; Beta-2 adrenergic receptor (Homo sapiens), P07550; AID 504454, 2011; response, % (concentration not given with the values); 340,000 compounds, 0.43% hits; Am2.2-beta2AR cells; reference of the scale not given here;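 active = response above a set limit, near 3 SD of response in nonfluorescent compounds, cut at about 42% in these data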;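 note: stock transfer was 100 nL into about 11 µL; a reference agonist was the positive control; negative values mostly stem from fluorescent compounds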
# Target sequence (P07550 whole entry, looked up): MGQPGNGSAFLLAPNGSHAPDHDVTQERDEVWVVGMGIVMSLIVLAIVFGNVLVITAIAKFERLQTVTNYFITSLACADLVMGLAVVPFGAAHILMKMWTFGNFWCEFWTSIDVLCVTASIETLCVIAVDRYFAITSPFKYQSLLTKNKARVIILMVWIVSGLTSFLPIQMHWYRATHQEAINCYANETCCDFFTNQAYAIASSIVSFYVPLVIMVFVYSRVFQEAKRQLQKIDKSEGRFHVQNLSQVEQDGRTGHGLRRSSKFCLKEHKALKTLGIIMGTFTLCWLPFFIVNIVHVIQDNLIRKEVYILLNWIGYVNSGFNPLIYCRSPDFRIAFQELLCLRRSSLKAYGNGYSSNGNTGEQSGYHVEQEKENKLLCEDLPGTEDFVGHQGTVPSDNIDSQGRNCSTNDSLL
# Calb FLC – C. albicans growth inhibition with fluconazole, primary screen, CaCi-2 strain, Alamar Blue fluorescence; C. albicans CaCi-2 (fluconazole-resistant clinical isolate) + fluconazole, 48 h; growth inhibition, % (concentration not given with the values); 300,000 compounds, 0.57% hits; AID 1979, 2009;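 active = most replicates above 75%; inconclusive = exactly half above 75%; inactive = most below 75%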;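 note: all wells also contain fluconazole at 8 µg/ml as a sub-toxic cotreatment; 0% = median of DMSO wells and 100% = median of geldanamycin control wells; wells of about 8 µL received 7.5 nL stock; the first replicate is given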
# LANA-H2A inh – blockers of LANA interaction with H2A/H2B – biochemical, FP readout, HTS, primary screen | Protein LANA1 (Human herpesvirus 8 type P (isolate GK18)), Q9QR71 | cell-free LANA-H2A/H2B peptide, fluorescence polarization | inhibition, % (concentration not given with the values) | 320,000 compounds, 0.6% hits; in the data active = inhibition mostly above about 10%, no sharp cut-off; inactive = mostly below about 6.7%;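 note: stock transfer was 7.5 nL into about 10 µL; 0% = median of vehicle wells and 100% = median of positive control wells; one replicate is shown; the record names a cut of 25% in any replicate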
# Beta apoptosis – inhibitors of cytokine-induced beta cell apoptosis, primary screen, luminescence | INS-1E cytokine-induced death, ATP luminescence, 48 h; percent of positive-control rescue, neutral wells zero | protection from apoptosis, % (no concentration beside the values) | 300,000 compounds, 0.8% hits;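 active = all replicates at 75% or more, or half of them and the mean; inconclusive = half reach 75% but not the mean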;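 note: 0% = cytokine-treated negative control wells and 100% = positive control rescue; higher means more ATP so stronger rescue from cytokine killing; wells of about 40 µL received 100 nL stock; the first replicate is given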
# T cruzi repl – inhibitors of intracellular T. cruzi growth, primary screen, luminescence, NIH3T3 host cells. inhibition, % (concentration not given with the values). T. cruzi beta-gal in NIH3T3, 90 h. 300,000 compounds, 1.4% hits;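 active = mean inhibition across valid replicates above about 55%, limit read from the data; inconclusive = mean below that limit but half or more replicates reach it; inactive = mean below it, under half of replicates reach it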;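 note: signal also drops with host cell toxicity which is not excluded here; 0% = plate median of DMSO wells and 100% = zero luminescence signal; higher percent means less beta-gal luminescence so fewer parasites; stock transfer was 50 nL into about 50 µL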
# ALR H2O2 inh – inhibitors of human ALR sulfhydryl oxidase, primary screen, biochemical, H2O2 detection, HRP-luminol luminescence, single point | 290,000 compounds, 3.8% hits | purified ALR, DTT oxidation | inhibition, % (test concentration not listed) | FAD-linked sulfhydryl oxidase ALR (Homo sapiens), P55789;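 active = mean and each replicate at 75% or more; inconclusive = only one of the two met; inactive = neither met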;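 note: stock transfer was 7.5 nL into about 7.5 µL; 0% = neutral wells and 100% = wells with inactivated enzyme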
# Target sequence (P55789 whole entry, looked up): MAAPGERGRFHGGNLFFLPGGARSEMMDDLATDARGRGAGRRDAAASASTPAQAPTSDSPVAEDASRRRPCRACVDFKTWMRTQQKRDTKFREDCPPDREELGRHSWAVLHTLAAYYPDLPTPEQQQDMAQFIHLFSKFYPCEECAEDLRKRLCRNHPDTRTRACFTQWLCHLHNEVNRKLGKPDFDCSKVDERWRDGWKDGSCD
# rRNA inh HTS OD600 – also measured in rRNA inh HTS; calls as there; OD600 change, %; measured here: OD600 growth;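 optical density of the mix in the first replicate; 0 = DMSO median and -100 = no signal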
# rRNA inh HTS RFP – second read-out of rRNA inh HTS, no call of its own (marks repeat the call); RFP signal change, %; measured here: RFP humanized mutant strains;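 first replicate; 0 = DMSO median and -100 = no signal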
# * hit, by the source's call; ? = inconclusive; . = no result given.
# Screens in order: A1 inh, rRNA inh HTS, rRNA inh HTS OD600, rRNA inh HTS RFP, B2AR ag, Calb FLC, LANA-H2A inh, Beta apoptosis, T cruzi repl, ALR H2O2 inh
CCOc1ccccc1NC(=O)CSc1ncnc2c1oc1ccccc12
    0.0, ., ., ., -10, -5, 2.2, 7, 16, -1
CCCOc1ccc(OCCOCCNCc2ccccc2)cc1
    0.4, ., ., ., -10, -1, 5.7, -6, ?, .
COc1cccc(C(=O)N/N=C/c2cn[nH]c2-c2ccc(OC)cc2OC)c1
    0.3, ., ., ., 0, -9, 4.2, 0, -4, .
O=C(Cc1ccccc1[N+](=O)[O-])Nc1ccccc1C(=O)N1CCCC1
    -0.2, 9, 17, -0.6, 5, 4, 0.3, 0, 13, -2
C=CCOC(=O)C(=O)/C=C/c1ccc2c(c1)Cc1ccccc1-2
    -0.9, -5, -7, -8.7, 6, -5, -0.3, -4, -1, 5
Cc1ccc(NC(=O)CSC(C)C(=O)OC(C)C(=O)NC2CCCCC2C)cc1 (stereo unspecified)
    0.7, -2, 2, -1.4, 2, ., 0.4, -4, ., 2
Cc1ccccc1NS(=O)(=O)c1cc(S(C)(=O)=O)ccc1Cl
    0.5, ., ., ., 2, -8, 1.0, 4, -4, 1
CCN(CC)C(=O)C1CCN(C(=O)c2oc3ccc(C)cc3c2C)CC1
    -0.3, 11, 1, -0.6, 4, 1, -11, ., -1, 0
CCOc1c(C(N)=O)cc([N+](=O)[O-])cc1[N+](=O)[O-]
    0.2, 6, 17, 13, 1, -7, 2.9, -8, 13, -37
CC1CCC(NC(=O)CN(C)S(=O)(=O)c2ccc3c(c2)CCC(=O)N3)CC1 (stereo unspecified)
    -0.4, -1, 0, -1.6, -1, 4, -2.4, 1, -19, 0
CC(C(=O)NCc1cccs1)n1cccc1 (stereo unspecified)
    1.7, ., ., ., -1, 0, -7.8, -3, 0, -2
CSc1ccccc1C(=O)NCc1cccnc1
    -1.2, 15, 12, -0.8, -4, 4, -4.0, -4, -21, -10
CSc1ccccc1NC(=O)CN(C)Cc1ccc(Br)cc1
    0.6, ., ., ., -2, -2, ., 1, 15, .
CCC1=C(OC(=O)N(CC)CC)N2C(=O)OC(=NCCc3c[nH]c4ccccc34)[C@]2(Cc2ccccc2)[C@H]2C1=CC[C@H]1C(=O)NC(=O)[C@H]12
    0.4, 8, 5, -1.6, -7, 59, 5.9, -6, 12, -54
COCCN1Cc2cccc(C(=O)NCc3ccccn3)c2C1=O
    0.3, -3, 1, 0.8, 1, -2, -2.7, -2, -10, -14
COc1ccccc1Nc1nc(N)nc(CSc2nccn2C)n1
    -0.2, 10, 12, -0.7, -3, 14, -7.3, -1, -7, 1
CCC(OC(=O)c1ccco1)C(=O)NCc1ccc(OC)cc1 (stereo unspecified)
    -0.8, 9, 9, 0.2, 6, -1, -1.2, -19, -4, 3
Cc1nc(SCC(=O)NC(=O)NCc2ccccc2)nc(C)c1C
    0.4, ., ., ., -1, -3, 2.1, -2, 4, -16
COc1ccc(N2CCN(CCCNC(=O)C(=O)c3c(C)n(C)c4ccccc34)CC2)cc1
    1.0, -3, -1, 2.4, 1, -15, -2.9, 1, 12, 65
O=C(COC(=O)c1ccccn1)NNC(=O)c1ccc(Br)cc1
    -0.2, 2, 3, 0.4, -2, ., 0.5, -13, ., -1
Fc1cccc(CSc2nc3ncccc3[nH]2)c1
    -1.0, ., ., ., -10, -3, 2.5, -4, -8, 1
CC[C@@]12C(=O)N(c3cccc(Cl)c3)C(=O)N1[C@H](c1cccc(C)c1)[C@@H]1C(=O)N(Cc3ccccc3)C(=O)[C@@H]12
    1.3, 8, 12, -2.6, -10, 16, 1.6, 6, 1, -5
COc1cccc(NC(=O)C(=O)NCC2CCCN2S(=O)(=O)c2ccccc2)c1 (stereo unspecified)
    -2.8, 2, -3, -0.9, -2, 5, 1.1, 5, 6, -2
O=C(c1ccc([N+](=O)[O-])cc1)N(Cc1ccc(Br)cc1)N1C(=O)CCCC1=O
    -0.1, 5, 17, -1.5, -12, 20, 2.4, -3, 0, -11
CCOC(=O)c1cccnc1SCc1cc(=O)n2ccccc2n1
    -0.1, -7, 6, -8.9, 1, 3, 0.3, -1, -12, 22
CCCCn1nnnc1SCC(=O)c1ccc(C)c(C)c1
    0.8, ., ., ., -3, 8, -1.5, -4, 7, 37
Cc1ccc2nc(-c3ccccc3)c(-c3ccccc3)nc2c1
    -0.7, -8, -19, -7.7, -2, 8, 2.6, 6, 26, 10
CC(NC(=O)COc1cccnc1[N+](=O)[O-])c1ccc(Cl)cc1 (stereo unspecified)
    -0.4, -3, 2, -1.4, -17, 18, 0.2, -4, 10, -6
Cc1cc(C)c(S(=O)(=O)N2CCCC(C(=O)NC3CC3)C2)c(C)c1 (stereo unspecified)
    0.4, -1, -4, 1.0, -4, -2, 1.9, -6, -2, -10
COc1ccc(C(C)NC(=O)c2cccc([N+](=O)[O-])c2)cc1OC (stereo unspecified)
    0.9, 10, 16, -2.5, -4, -2, -2.3, -2, -36, -3

# Continued:
SMILES	A1 inh	rRNA inh HTS	rRNA inh HTS OD600	rRNA inh HTS RFP	B2AR ag	Calb FLC	LANA-H2A inh	Beta apoptosis	T cruzi repl	ALR H2O2 inh
O=C(Nc1cc(Cl)ccc1N1CCOCC1)C1CC1	0.3	15	7	4.9	-3	.	4.4	1	.	-12
Cc1ccccc1C(=O)N1CCC(C(=O)OCc2ccccc2Cl)CC1	1.0	-15	-43	-2.1	-3	.	-5.3	-2	.	-32
CCS(=O)(=O)c1ccc2oc(SCC(=O)c3c(N)n(C4CC4)c(=O)[nH]c3=O)nc2c1	0.5	8	14	-1.7	-4	.	47*	-1	.	-5
CN(C)N1C(N)=C(C#N)C(c2ccc3c(c2)OCO3)C2=C1CC(C)(C)CC2=O (stereo unspecified)	0.1	4	4	-3.9	3	-1	0.8	-6	13	8
CSc1nc2ccc(NC(=O)C3CC(=O)N(Cc4ccco4)C3)cc2s1 (stereo unspecified)	-0.3	.	.	.	-12	14	-0.2	-1	-5	-11
COCCn1c(SCC(=O)NC2(C#N)CCCCC2)nc2ccccc2c1=O	1.0	-2	-5	-0.6	13	.	-4.5	2	.	-1
Cc1ccc(C(c2sc3nc(C)nn3c2O)N2CCN(C(=O)c3ccco3)CC2)cc1 (stereo unspecified)	0.5	7	0	9.0	8	-13	6.3	-4	-4	-2
CCOC(=O)CSc1ncnc2c1nnn2-c1ccc(F)cc1	-2.5	.	.	.	13	4	0.3	-10	.	-2
CCN1C(=O)/C(=C/C2=Cc3ccccc3OC2C)SC1=S (stereo unspecified)	0.1	5	0	23	-17	-9	-1.7	-6	-8	-20
COc1ccc(CN2C(=S)NC(C)(C)CC2(C)O)cc1 (stereo unspecified)	0.3	.	.	.	2	-6	3.9	-9	-11	.
COCc1cc(=O)n2[nH]c(C(F)(F)F)nc2n1	0.1	.	.	.	0	-2	-3.4	4	-9	-6
CC(C)OCCCNC(=O)c1c(N)n(/N=C/c2cccs2)c2nc3ccccc3nc12	-0.8	5	14	-1.6	-2	3	-5.0	13	30	-10
CN(C(=O)c1ccc(NC(=O)C2CCCN(C(=O)OC(C)(C)C)C2)cc1)C1CC1 (stereo unspecified)	3.7	0	2	-12	0	.	1.3	1	.	4
Cc1cc(C)cc(NC(=S)Nc2ccccn2)c1	-0.3	-11	-13	-3.5	13	-19	-2.3	7	-1	97*
COc1ccc(N2CCN(C(=O)COC(=O)c3ccc(OC(F)F)cc3)CC2)cc1	-0.5	10	9	-2.0	-11	.	3.4	-1	.	1
COCCCn1c(SCC(=O)Nc2nc3ccccc3s2)nnc1-c1ccoc1C	-0.2	.	.	.	-9	-7	-1.9	-5	3	.
CNc1cc(C)nc(-n2nc(C)cc2C)n1	-0.5	.	.	.	-8	-6	-0.9	4	-57	2
COc1cccc(-c2nnc(NC(=O)c3ccc4ncsc4c3)o2)c1	-0.4	-51	-70	-28	30	107*	-0.6	7	19	0
CC(C)CNC(=O)c1cc(-c2ccc(Cl)c(Cl)c2)on1	-2.7	7	14	0.1	-1	3	1.8	-4	0	-4
Fc1ccc(CSc2nncn2NCc2ccccc2)cc1	0.4	.	.	.	2	-27	-0.2	.	-1	-5
Cc1cc(OCc2cc(C(=O)NCCN3CCCCC3CO)no2)cc(C)c1Cl (stereo unspecified)	-0.6	-20	-21	1.6	16	-2	-1.9	-5	-22	1
Cc1cc(C(=O)N/N=C/c2ccc(N3CCOCC3)cc2)c(C)o1	-13	3	3	1.5	11	24	-0.4	10	0	14
COc1ccc(/C=C/C(=O)Nc2ccc3c(c2)CCC3)cc1OC	-0.3	.	.	.	3	4	-0.8	-2	16	49
CC(C)[C@H](NC(=O)N1c2ccccc2NC(=O)[C@@H]1C(C)C)C(=O)N1CCC(C(=O)O)CC1	0.4	.	.	.	3	13	-0.3	1	-8	.
CCc1ccc(NC(=O)C(C)OC(=O)c2ccc(NS(=O)(=O)c3ccc(C)c([N+](=O)[O-])c3)cc2)cc1 (stereo unspecified)	-0.1	-1	-3	-2.6	10	-6	-0.2	-2	29	-4

# Looked up by compound from the entries so far:
SMILES	A1 inh	rRNA inh HTS	rRNA inh HTS OD600	rRNA inh HTS RFP	B2AR ag	Calb FLC	LANA-H2A inh	Beta apoptosis	T cruzi repl	ALR H2O2 inh
COc1cccc(-c2nnc(NC(=O)c3ccc4ncsc4c3)o2)c1	-0.4	-51	-70	-28	30	107*	-0.6	7	19	0
CC(C)CNC(=O)c1cc(-c2ccc(Cl)c(Cl)c2)on1	-2.7	7	14	0.1	-1	3	1.8	-4	0	-4
CCS(=O)(=O)c1ccc2oc(SCC(=O)c3c(N)n(C4CC4)c(=O)[nH]c3=O)nc2c1	0.5	8	14	-1.7	-4	.	47*	-1	.	-5

# Not all compounds are listed, so the mix of outcomes need not match the whole.
